NPYLR7 ag – activates Aedes aegypti NPYLR7 receptor; HEK293T NPYLR7/Galpha15, GCaMP6s calcium fluorescence; hit rate 0.15% among 270,000; activation, % at 10 µM; in the data active means activation above about 40%;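 further: 0% = vehicle and 100% = reference agonist at the receptor; some compounds past the cut are filed as inactive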
NPYLR7 ag max-min – second read-out of NPYLR7 ag, no call of its own (marks repeat the call); activation, %; measured here: Max-Min RFU normalised activation; some inactives read as strong as hits;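 span of the calcium signal over five minutes; 0% = vehicle and 100% = native peptide agonist; compound fluorescence can raise it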
* hit, by the source's call.

Structure | NPYLR7 ag | NPYLR7 ag max-min
Cc1cc(/C=C2\C(=O)N(c3ccc(C#N)cc3)C(=S)N2C)oc1C | 27 | 22
CC(C)CCC(=O)N1CCC(C2(Cc3ccc(F)cc3)NC(=O)N(CC3CCCO3)C2=O)CC1 (stereo not drawn) | 16 | 0
CCOc1ccc(-c2ccc(=O)n(CCNC(=O)c3cccc(C(F)(F)F)c3)n2)cc1 | -3 | -5
C=CCN1CC(C(=O)N(C)Cc2nonc2C)CC1=O (stereo not drawn) | 15 | 9
COc1cccc(C(=O)N2N=C3CCCCC3C2(O)C(F)(F)F)c1 (stereo not drawn) | 0 | 0
Cc1cc(-n2c(C)cc(C(=O)Cn3cnc4sc5c(c4c3=O)CCC5)c2C)no1 | -2 | -1
CNC(=O)c1cc(-c2ccccn2)n[nH]1 | 12 | 5
Cc1[nH]c2nc3ccccc3n2c(=O)c1CCC#N | -10 | -14
CCc1ccc(CN(C)Cc2nc(-c3cnccn3)no2)nc1 | 4 | 2
O=C(Cc1cccs1)OCCN=C1NS(=O)(=O)c2ccccc21 | -2 | -4
CCOCCCNC(=O)CC1C(=O)NCCN1Cc1ccc(OC)cc1F (stereo not drawn) | 8 | 7
CCCc1oncc1C(=O)N1CCCC(N(C)CCN(C)C)C1 (stereo not drawn) | 4 | 3
CCC1=C[C@H]2CN(C1)Cc1c([nH]c3ccccc13)[C@@](C(=O)OC)(c1cc3c(cc1OC)N(C)[C@H]1[C@@](O)(C(=O)OC)[C@H](OC(C)=O)[C@]4(CC)C=CCN5CC[C@]31[C@@H]54)C2 | -8 | -11
Cc1nc(CN(C)S(=O)(=O)c2ccc(S(=O)(=O)N(C)C)cc2)n[nH]1 | 10 | -3
CN(Cc1ccccn1)c1nc2nonc2nc1N1CCCCCC1 | -6 | -1
COc1ccccc1N1CCN(c2ccc(NC(=O)c3ccc(Cl)cc3Cl)cc2C(=O)NCC2CCCO2)CC1 (stereo not drawn) | 9 | 9
CC(O)(c1ccccc1)c1nc(/C=C/c2ccccc2)cs1 (stereo not drawn) | 7 | 2
Cc1cc(C(=O)CN2C(=O)NC3(CCCCCC3)C2=O)c(C)n1CC1CCCO1 (stereo not drawn) | -1 | 15
O=C(Nc1ccc(Oc2ccccc2)cc1C(F)(F)F)C1CCCO1 (stereo not drawn) | 5 | 2
c1ccc(OCc2noc(CN3CCC(c4nc5ccccc5o4)CC3)n2)cc1 | -1 | -4
CCOC(=O)c1nc2cc(Cl)c(Cl)cc2nc1N1CCCN(C(=O)c2cc(OC)c(OC)c(OC)c2)CC1 | 5 | 4
COc1ccc(C(=O)Nc2c(N)nc(SCC(=O)N3CCCCCC3)[nH]c2=O)cc1 | -6 | -6
COc1ccc(-c2nn(-c3ccccc3C)cc2CN(C)CCc2cnn(C)c2)cc1F | -6 | -3
Cc1ccc(-c2noc(CCc3nccs3)n2)cc1F | 3 | 3
O=C(CSc1nnc(-c2ccc(F)cc2)o1)c1ccc(F)cc1 | 6 | 5

Gathered by group: those above containing a CF3 group
Structure | NPYLR7 ag | NPYLR7 ag max-min
CCOc1ccc(-c2ccc(=O)n(CCNC(=O)c3cccc(C(F)(F)F)c3)n2)cc1 | -3 | -5
COc1cccc(C(=O)N2N=C3CCCCC3C2(O)C(F)(F)F)c1 (stereo not drawn) | 0 | 0
O=C(Nc1ccc(Oc2ccccc2)cc1C(F)(F)F)C1CCCO1 (stereo not drawn) | 5 | 2

The list continues:
Structure | NPYLR7 ag | NPYLR7 ag max-min
Cc1ccc(-n2nnnc2CNC(=O)CC(c2ccccc2)c2ccccc2)cc1 | -13 | -7
Cc1cc(O)c(C(C)C)cc1NC(=O)c1ccsc1 | 1 | 293
O=S(=O)(NCCNc1ccc(Nc2cccnc2)nn1)c1cccc(C(F)(F)F)c1 | 1 | 1
C=C(C)CN1CCN(c2cc(C)nc3c(-c4ccccc4Cl)c(C)nn23)CC1 | 2 | 8
CCN(CCn1cccn1)C(=O)c1noc2c1CCCC2 | 0 | -1
O=c1oc2ccc3ccccc3c2cc1-c1csc(Nc2ccc(Cl)cc2Cl)n1 | -2 | -13
CC(C)COC(=NCCCc1ccccc1)NC(=O)c1cccs1 | 9 | 7
Nc1ccc2oc(CCc3nc4cc(N)ccc4o3)nc2c1 | -1 | -4
Nc1ccc2c(c1)OCCO2 | 2 | -1
CN1C(=O)C(C)(C)ON=C1c1ccc(C(F)(F)F)cc1 | 7 | 4
Cc1cccc(C2c3cccn3-c3ccccc3N2C(=O)CN(C(=O)c2cc(Cl)cc(Cl)c2)C2CC2)c1 (stereo not drawn) | -7 | 4
CC(SCc1ccco1)C(=O)Nc1cccc(S(N)(=O)=O)c1 (stereo not drawn) | 1 | 0
COc1ccc(NC(=O)c2sc(=O)n(Cc3ccccc3C#N)c2C)cc1OC | 2 | -2
Cn1cccc1C=NN1CCN(Cc2ccccc2)CC1 | -2 | -6
COc1ccc(C=C2Oc3cc(O)ccc3C2=O)c(OC)c1 | 34 | 22
c1ccc(OCCn2ccnc2C2CCOC2)cc1 (stereo not drawn) | -2 | 0
CCc1cnc2c(c1SCC#N)c(=O)n(C)c(=O)n2C | -8 | -6
Cc1cc(C)cc(NC(=S)NC(C)(C)CO)c1 | -5 | -6
Cc1nc(C)c(CN2CCC(CNS(C)(=O)=O)C2)s1 (stereo not drawn) | -4 | -3
CCOC(=O)C1CCN(CC(=O)N2N=C(c3cccc(F)c3)CC2c2ccccc2OC)CC1 (stereo not drawn) | 1 | 0
CC(C)(C)NC(=O)c1cnn2c1NC(c1ccco1)CC2C(F)(F)F (stereo not drawn) | -2 | -10
CC1(C)O[C@@H]2C[C@@](OCc3cccc(C(F)(F)F)c3)(C(=O)NCc3ccco3)CC(OCc3ccc(C#N)cc3)[C@@H]2O1 (stereo partly drawn) | 5 | 8
CNc1nc(N2CCC(O)(CO)CC2)nc2c1CCC2 | 0 | 0
CCOC(=O)C(CC)Sc1nnc2n1CCN2c1ccccc1 (stereo not drawn) | 4 | 4
CCN(Cc1ccccc1)C(=O)Nc1cn(C)c2ccccc12 | -2 | -10

Entries of single compounds as entered above. Order of screens: NPYLR7 ag, NPYLR7 ag max-min
CCc1cnc2c(c1SCC#N)c(=O)n(C)c(=O)n2C is listed with -8, -6
CNc1nc(N2CCC(O)(CO)CC2)nc2c1CCC2 is listed with 0, 0
CCOC(=O)C(CC)Sc1nnc2n1CCN2c1ccccc1 (stereo not drawn) is listed with 4, 4
CC(C)COC(=NCCCc1ccccc1)NC(=O)c1cccs1 is listed with 9, 7
Cc1ccc(-n2nnnc2CNC(=O)CC(c2ccccc2)c2ccccc2)cc1 is listed with -13, -7

Following part
Structure | NPYLR7 ag | NPYLR7 ag max-min
CN(C)c1ccc(CN2CCC(Cc3ccc4c(c3)OCO4)CC2)c2ccccc12 | 3 | 15
COc1ccc2[nH]cc(C3CCN(C(=O)c4cc(Cl)cnc4Cl)CC3)c2c1 | 5 | 5
CN(C)C(=O)CN1CCN(C(C(=O)O)c2cn(CC(=O)O)c3cc(Cl)ccc23)CC1 (stereo not drawn) | -2 | -7
C=CCNC(CC(=O)Nc1cc(Cl)ccc1O)C(=O)O (stereo not drawn) | 5 | 7
CC(Cc1nc2ccccc2s1)NC(=O)c1ccn(C)c(=O)c1 (stereo not drawn) | -4 | -2
O=C(Cn1ccn2nc(-c3ccccc3)cc2c1=O)Nc1ccc(Br)cc1 | 7 | 3
CCCCCCCC(=O)N(Cc1ccc(OS(=O)(=O)c2ccc(F)cc2)cc1)C(C)CC (stereo not drawn) | -9 | -13
Cc1onc(-c2c(F)cccc2Cl)c1C(=O)NCc1nnc2n1CCCCC2 | 5 | 1
CCOc1ccc(-c2cccc(NS(=O)(=O)c3ccc(Cl)s3)c2)nn1 | -2 | 4
COCCNc1nc(Oc2cccc3ccccc23)c2sccc2n1 | 7 | 1
Cc1ccc(Cn2cc(C(=O)NNC(=O)Nc3ccc(Cl)cc3)ccc2=O)cc1 | 3 | 2
CN(C(=O)CSc1ccccc1C(=O)N1CC[C@H](O)C1)C1CCCCC1 | 8 | 8
CC1CCCC(C)N1Cn1ncn(C)c1=S (stereo not drawn) | -12 | -16
O=C(NCCNc1nc(C2CC2)nc2cc(Cl)ccc12)c1cccs1 | 21 | 29
CNC(=O)C1CCCN1C(=O)CN1CCc2c(ncn2C2CC2)C1 (stereo not drawn) | 8 | 8
N#CCCNC(=O)c1ccc(-c2cc(-c3cccc4ccccc34)[nH]n2)cc1 | 4 | -4
CCOc1ncccc1C(=O)N[C@H]1C[C@@H](C(=O)OC)N(C)C1 | 1 | 3
Cc1cccc(-c2nc3cc(C)ccn3c2Nc2c(C)cccc2C)c1 | -4 | 6
O=C(c1cccs1)N1CCN(C(C(=O)N2CCCC2)C2CCCC2)CC1 (stereo not drawn) | -7 | -5
O=S(=O)(Nc1ccccc1-n1ccnn1)c1c(F)cc(F)cc1Br | 9 | 2
Cc1nnsc1CN(C)C(=O)c1ccc(-c2noc(C3CC3)n2)cc1 | -7 | -10
CCc1nc2ccc(C(=O)NCCOc3ccc(OC)cc3)cn2c1N(C)Cc1nccn1C | -2 | -4
O=C(O)C1CCCN1C=CC(=O)C(F)(F)F (stereo not drawn) | 2 | 2
O=C(NNS(=O)(=O)c1cccc(Cl)c1)c1cncn1-c1ccc(F)cc1 | 5 | 2
O=C(CC(c1cccc(F)c1)c1c[nH]c2ccccc12)NC1CC1 (stereo not drawn) | 1 | 11
CC(=O)N1CCC(N2CCC(O)(c3ccccc3C)C2)CC1 (stereo not drawn) | 1 | -3
O=C(NCc1n[nH]c2c1CCCCC2)c1cn(CCCc2ccccc2)nn1 | 1 | 1
CC(C)OCCCNC(=O)CCc1nc2sc3c(c2c(=O)[nH]1)CCCC3 | 3 | 12
O=C(c1cccs1)N1CCOC(Cc2cccc(C(F)(F)F)c2)C1 (stereo not drawn) | 4 | -1
Cc1nc(CN2CCOC(c3nc(C(C)C)n[nH]3)C2)oc1C (stereo not drawn) | 3 | 0
CCOc1ccccc1N1CCN(S(=O)(=O)c2ccc(OC)c(OC)c2)CC1 | -1 | -2
COc1ccc(-n2c(=O)[nH]c3c(C(N)=O)nc(-c4cccc(Cl)c4)nc32)cc1OC | -8 | -12
O=C(c1cc(-c2ccccc2)nc2ccccc12)N1CCCC(c2ccn[nH]2)C1 (stereo not drawn) | 1 | 0
O=c1c2ccsc2ncn1CCS(=O)(=O)NCc1ccco1 | 9 | 8
C1=CC[C@H]2CN(c3ncnc4sccc34)C[C@H]2C1 | 6 | 4
O=C(N[C@@H]1CCCCC1NC(=O)C1CCN(C(=O)CSc2ccccc2)CC1)c1ccccc1 (stereo partly drawn) | -1 | -1
CN(CCCC(=O)Nc1ccncc1)S(=O)(=O)c1ccc2c(c1)C(=O)c1ccccc1C2=O | 7 | 14
CN1C(=O)c2cc(NS(=O)(=O)CCc3ccccc3)ccc2Oc2ccccc21 | 6 | 3
Cc1ccccc1N1CCN(C(=O)CC2C(=O)NCCN2Cc2cccc(F)c2F)CC1 (stereo not drawn) | 8 | 1
CC1(C(=O)O)CCN1C(=O)c1cc(F)cc(F)c1 (stereo not drawn) | 3 | 2
CNC(=O)c1cc2c(cn1)[nH]c1ccccc12 | 0 | -21
Cc1ccsc1C=C(C#N)c1nc(C2CC2)cs1 | -3 | -6
COCCN1CCN(C(=O)c2cnn(-c3cccc(Cl)c3Cl)c2N)CC1 | 1 | 8
COc1ccccc1-n1c(N)c(S(=O)(=O)c2ccc(F)cc2)c2nc3ccccc3nc21 | 13 | 12
COc1ccc(-c2cc(-c3cccs3)c(C#N)c(=O)[nH]2)cc1 | 0 | 0
CCn1ncc(CN(C)Cc2cnc3c(-c4ccccc4)cnn3c2)c1C | 4 | 2
Cc1nsc(NC(=O)N2CCCN(c3ccncc3C)CC2)n1 | 0 | -6
COC(=O)C1=C(C)NC2=C(C(=O)CC(c3ccc(Cl)cc3)C2)C1c1ccc(C)cc1 (stereo not drawn) | -3 | -8
CSC(C)C(=O)N1CCN(C(=O)c2ccc(Cl)cc2F)CC1 (stereo not drawn) | 8 | -18
Cc1nc(C)n(CCNc2nccc(CCC(F)(F)F)n2)n1 | -1 | -1

Overlap with the part before: 3 compounds; new compounds follow.
Structure | NPYLR7 ag | NPYLR7 ag max-min
COC(=O)C1=C(C)NC2=C(C(=O)CC(c3ccc(Cl)cc3)C2)C1c1ccc(C)cc1 (stereo not drawn) | -3 | -8
CSC(C)C(=O)N1CCN(C(=O)c2ccc(Cl)cc2F)CC1 (stereo not drawn) | 8 | -18
Cc1nc(C)n(CCNc2nccc(CCC(F)(F)F)n2)n1 | -1 | -1
COc1cccc(-c2cc(C(=O)N3CC[C@H](O)[C@@H](O)C3)[nH]n2)c1 | 4 | 1
CC(=O)Nc1ccc(NCc2cnn(C)c2)c(C(F)(F)F)c1 | 1 | -1
Cc1nc(CNCc2ccc(OC34CCCN(CC3)C4)cc2)n[nH]1 (stereo not drawn) | 10 | 5
S=C(NCc1ccc2c(c1)OCO2)N1CCN(c2ncnc3c2oc2ccccc23)CC1 | -4 | -8

Some of the compounds tested, so the mix of outcomes need not match the whole.
